Menin-MLL FL inh: displaces fluorescein MLL peptide from human menin | Fluorescence polarization, fluorescein-MLL peptide displacement from menin | 290,000 tested, under 10 active | AID 1766 | FP activity change, % at 61.4 µM; inconclusive = falling polarisation curve, or a change in total fluorescence; inactive = total fluorescence flat and polarisation flat or rising; no compound was filed as active; the % refers to the polarisation; negative = inhibition;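 further: % of control where 0% means no effect; inhibitors lower the polarisation; unlabelled MLL peptide was the positive control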
TRPML1 inh: blocks the human TRPML1 channel; activity change, negative = inhibition, % (test concentration not listed); hit rate 0.02% among 390,000; TRPML1-inducible cells, Ca2+ dye fluorescence, FDSS; stronger effect = lower value; inhibition of EC80 agonist-evoked calcium signal; in the data active means activity change below about -50%; inconclusive means about -30% to -50%; inactive means above about -30%;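 further: stimulus is agonist 54-4 at its EC80 concentration; on the % scale 0 is the no-effect control and ±100 the full control effect; compound concentration not given in the record; the text of the record puts the active cut at -80%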
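Tet-induced TRPML1-DL cells loaded with Ca8 no-wash calcium dye were read kinetically on FDSS. Compound addition was followed by EC80 agonist 54-4 (4 uM final); inhibition was read over 110 s.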
ClpP mod: qHTS Assay for Activators of ClpP; hit rate 1.9% among 340,000; ATP-dependent Clp protease proteolytic subunit (Bacillus subtilis (strain 168)), P80244; Potency, µM (titrated, usually from 57.5 µM), for inactives: at the highest dose activity change, negative = active; purified B. subtilis ClpP, FRET peptide cleavage, 20 min; active = well fitted falling curve with a large enough effect; inconclusive = small, poorly fitted or top-dose-only effect; inactive = no such curve, though single readings can be large or run the other way; further: potency means the concentration at half of the fitted maximal effect; the source files actives as falling curves though it sought activators and does not explain the sign; nearly all actives have a fitted effect of over 65% in size; many hits overshoot -100%
Target sequence (P80244 whole entry, looked up): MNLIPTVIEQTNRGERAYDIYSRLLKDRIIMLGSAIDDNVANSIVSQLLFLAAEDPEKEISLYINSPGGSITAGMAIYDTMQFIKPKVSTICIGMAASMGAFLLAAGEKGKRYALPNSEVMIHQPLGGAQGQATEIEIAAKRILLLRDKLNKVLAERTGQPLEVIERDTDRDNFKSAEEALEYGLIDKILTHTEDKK
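ClpP 10 microg/mL final, pH 8 Tris/KCl buffer with BSA, glycerol, Tween-20; compound pinned in; FRET-FV substrate; RT 20 min; Ex320/Em430; ΔFRET vs ADEP 5.8 microM, DMSO, no enzyme.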
TRPV1 PAM: enhances activation of the human vanilloid receptor TRPV1. TRPV1-expressing cells, Fluo-8 calcium influx, capsaicin EC20 potentiation; host cell line not named in the record; control for the full effect not named in the record. potentiation, % at 8.33 µM. hit rate 0.02% among 320,000. AID 540277; active means potentiation above 80%; inconclusive means 30% to 80%; inactive means below 30%; further: 0% is about no effect
Target sequence (Q8NER1 whole entry, looked up): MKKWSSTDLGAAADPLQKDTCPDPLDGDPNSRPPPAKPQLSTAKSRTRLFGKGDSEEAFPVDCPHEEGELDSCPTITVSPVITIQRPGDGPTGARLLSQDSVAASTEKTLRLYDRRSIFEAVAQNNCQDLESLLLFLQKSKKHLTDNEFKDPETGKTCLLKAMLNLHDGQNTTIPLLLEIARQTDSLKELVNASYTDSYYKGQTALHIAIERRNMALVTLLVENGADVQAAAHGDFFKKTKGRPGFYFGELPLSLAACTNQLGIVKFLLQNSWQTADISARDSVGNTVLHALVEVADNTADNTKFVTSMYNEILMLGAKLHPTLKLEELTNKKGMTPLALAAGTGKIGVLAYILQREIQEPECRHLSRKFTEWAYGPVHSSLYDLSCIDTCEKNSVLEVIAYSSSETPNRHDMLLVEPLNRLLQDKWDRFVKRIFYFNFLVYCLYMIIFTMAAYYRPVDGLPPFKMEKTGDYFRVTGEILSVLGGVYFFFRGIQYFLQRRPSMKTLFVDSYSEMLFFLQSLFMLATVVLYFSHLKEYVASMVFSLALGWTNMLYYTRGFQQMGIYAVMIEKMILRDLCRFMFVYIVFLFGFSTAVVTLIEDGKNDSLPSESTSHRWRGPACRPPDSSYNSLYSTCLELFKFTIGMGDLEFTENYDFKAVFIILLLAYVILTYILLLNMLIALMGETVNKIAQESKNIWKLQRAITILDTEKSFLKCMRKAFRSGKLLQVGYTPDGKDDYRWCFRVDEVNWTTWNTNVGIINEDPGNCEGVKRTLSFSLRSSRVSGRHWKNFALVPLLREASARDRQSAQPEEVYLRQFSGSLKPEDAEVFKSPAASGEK
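TRPV1-expressing cells were cultured overnight at 35.5C and loaded with Fluo-8 calcium dye for 40 to 90 min at room temperature. After a 10 s baseline, compound was added and calcium influx was read kinetically for 3 min (ex 480/em 520 nm).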
TRPML1 agonist: agonists of human TRPML1 channel. Q9GZU1. TRPML1-expressing cells, Ca2+ dye fluorescence, FDSS; host cell line not named in the record; reference of the full effect not given here. activation, % (concentration not given with the values). hit rate 0.12% among 410,000. AID 624414; in the data active = activation above about 50%; inconclusive = about 30% to 50%; inactive = below about 30%; further: 0% is about no effect; the text of the record puts the active cut at 80%
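Kinetic FDSS Ca2+ read in Tet-induced TRPML1-DL cells (ABD Ca8 dye plus quencher, 45-90 min RT loading): baseline, then compound, then 110 s agonist window; EC80 agonist 54-4 at 4uM final added afterwards for a 110 s antagonist window.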
Sfp inh: Sfp phosphopantetheinyl transferase inhibition; Biochemical Sfp PPTase activity, qHTS; Potency, µM, without a hit: max response, negative = inhibition, hits mostly inhibitors; hit rate 3.5% among 310,000; AID 1490; active means well fitted inhibition curve with a large enough effect; inconclusive means small, poorly fitted or top-dose-only effect, or another doubt; inactive means no such curve, though single readings can be large or run the other way;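 further: the enzyme is Sfp with the accession as filed and its product quenches rhodamine fluorescence; potency means the concentration at half of the fitted maximal effect; 0% = enzyme reaction without inhibitor and -100% = no enzyme wells; top concentration of the series not given in the record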
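Compounds were incubated with enzyme (final 15 nM) for 15 min at room temperature before substrate addition started the reaction. Fluorescence at 525 nm excitation, 598 nm emission was recorded immediately and after 30 minutes.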
PINK1 expr mod: changes PINK1 expression; PINK1 immunofluorescence, high-content cytometry, 24 h; Potency, µM (top dose mostly 76.6 µM), without a hit: at the highest dose activation (PINK1 increase), hits mostly activators; hit rate 0.2% among 410,000; active = well fitted activation curve with a large enough effect; inconclusive = small, poorly fitted or top-dose-only effect; inactive = flat fitted curve, though single readings scatter; cell line not stated here;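 further: potency means the concentration at half of the fitted maximal effect; % of control where 0% means no effect; nearly all actives have a fitted effect of over 65% in size; a mitochondrial uncoupler was the plate control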
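Readout is PINK1 immunofluorescence, quantified alongside mitochondrial, cell and nuclear markers by laser-scanning microplate cytometry. Cells from a stable line were exposed to compound titrations (5 concentrations) for 24 hours, with CCCP controls.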
* marks the source's active call; other numbers are inactive results; ? = inconclusive; . = no result given; & = joins results of further samples; [ ] = another dose, or the depositor's remark.

SMILES	Menin-MLL FL inh	TRPML1 inh	ClpP mod	TRPV1 PAM	TRPML1 agonist	Sfp inh	PINK1 expr mod
NC(=O)CSc1ccc(S(=O)(=O)N2CCCCC2)cn1	.	-2	-1.1%	6	5.2	.	1.4%
O=C(NC(=S)NCCc1ccccc1)C1CCCCC1	1.3	-21	-3.8%	9	0.6	16%	2.2%
Cc1ccnc(N2C(=O)CSC2c2ccc(Cl)cc2)c1 (stereo not drawn)	5.7	32	0.6%	-7	-0.5	2%	2.6%
Cc1ccc(C(=O)NCc2ccccc2)cc1NC(=O)c1nsc2ccccc12	.	-18	-3.8%	.	1.6	.	0.6%
O=c1ccccn1Cc1c(F)cccc1Cl	1.2	-12	-0.8%	16	-1.0	14%	0.9%
Cc1ccc(F)c(NC=C2C(=O)OC(C)(C)OC2=O)c1	6.2	-29	-6.7%	9	1.4	5%	-1.9%[38.3 µM]
CCOc1cc(C(C(=O)NCC2CCCO2)N(C(=O)Cn2nnc3ccccc32)c2ccccc2OC)ccc1O (stereo not drawn)	-3.3	-13	-0.3%	-12	-0.8	10%	-0.3%
COc1ccc2[nH]cc(CCNC(=O)C3CC(=O)N(c4ccc(Cl)cc4)C3)c2c1 (stereo not drawn)	-1.7	21	.	-8	0.9	2%	3.5%
COC(=O)CCNS(=O)(=O)c1ccc2ccccc2c1	3.6	-24	-1.5%	-2	2.4	9%	-0.5%
CCC(C)NC(=O)C1CCC(=O)N1CCc1ccccc1 (stereo not drawn)	3.6	7	0.0%	?	-1.2	15%	2.9%
C=C1C(=O)[C@]23C[C@H]1CC[C@H]2[C@]1(C)[C@@H](OC(C)=O)CC[C@@](C)(C(=O)OC)[C@H]1C[C@@H]3OC(C)=O	.	.	0.6%	.	14	.	-0.9%
COc1ccc(-c2cn3nc(N4CCCC(C(=O)Nc5cc(C)ccc5C)C4)sc3n2)cc1 (stereo not drawn)	.	-5	-2.1%	.	1.4	.	1.7%
COc1cc(CN2CCCCCC2)cc(Br)c1O	-0.9	21	.	-11	-0.7	7%	0.8%
CC[C@]12c3[nH]c4ccc(OC)cc4c3CCN1C(=O)C(CC(=O)NCCCN(C)C)C[C@@H]2C(=O)N1CCN(C(=O)C2CC2)CC1 (stereo partly drawn)	.	1	0.7%	.	-0.1	.	1.4%
CC(=O)Nc1ccc(S(=O)(=O)NNc2cccc(C)c2)cc1	.	20	.	-1	1.5	-88%	5.7%
O=C(N/N=C/c1ccc[nH]1)c1ccc([N+](=O)[O-])cc1	2.6	3	0.9%	-17	-0.2	1%	1.7%
CC(C)c1ccc2oc(-c3ccc(NC(=O)c4cc5ccccc5o4)cc3)nc2c1	.	-8	-4.4%	.	0.1	.	0.1%
CC(=O)c1ccc(NC(=O)c2c(C)nn(-c3ccccc3)c2Cl)cc1	1.9	13	.	24	2.5	-14%	1.3%
COc1ccc(S(=O)(=O)N(C)CC(=O)N2CCN(C)CC2)cc1Cl	-1.9	8	-0.6%	-15	-0.6	27%	-1.2%
Cc1cc(Br)cc(Cl)c1OCC(=O)N1CCN(C(=O)c2ccco2)CC1	.	-2	1.4%	-7	-0.6	.	0.9%
O=C(CCN1CCN(c2ccccc2)CC1)N/N=C/c1ccc(O)c(O)c1O	2.5	19	-4.2%	0	1.3	8.9µM*	-0.5%
COC(=O)c1ccccc1NC(=O)C1CCCN(S(=O)(=O)c2ccc(OC)cc2)C1 (stereo not drawn)	4.7	12	-14%	-5	7.5	4%	5.6%
O=C1C=C(O)C(n2cncn2)C(c2ccc(F)cc2)C1 (stereo not drawn)	4.4	-7	.	29	-0.6	9%	-0.1%
CCN(CC)C(=O)CN1CCN(Cc2ccc3c(c2)OCO3)CC1	-14	-6	.	14	-0.4	79µM*	-1.0%
COc1ccc(N2C(=O)/C(=C\c3ccco3)N=C2SCC(=O)NC(C)(C)C)cc1Cl	?	14	4.5%	-8	1.4	-58%	0.0%
O=S(=O)(c1ccc(-c2csc(=Nc3ccc(OC(F)(F)Cl)cc3)n2CCCO)cc1)N1CCCC1	.	32	-10%	.	0.8	.	7.3%
CCOC(=O)c1cc(-c2ccc(F)cc2)n(CC(=O)Nc2nccs2)c1C	.	-11	-2.0%	.	0.4	.	7.4%
Fc1cccc(CSc2ccc3nnc(-c4cccnc4)n3n2)c1	-0.4	30	7.5%	17	-0.4	8%	-0.1%
Cc1ccc(C(=O)c2ccccc2C(=O)OCC(=O)NC(=O)NC(C)(C)C)cc1	0.3	13	.	-3	-0.2	20%	2.5%
CCOC(=O)C1=C(C)N(C)C(C)=C(C(=O)OCC)C1c1ccsc1	-11	-2	.	-15	4.0	-1%	2.6%
CCCCNC(=O)CSc1nc2cc3c(cc2c(=O)n1CCCCCC(=O)NCCc1ccc(OC)c(OC)c1)OCO3	.	22	-2.3%	.	1.7	.	1.0%
CC(C)[C@H](NC(=O)c1cc2cc(Cl)ccc2n1C)C(=O)N[C@@H](C(=O)O)c1ccccc1	0.4	1	?	4	0.7	13%	-0.6%
COC(=O)c1ccc(NC(=O)Cn2nc(-c3ccncc3)nc2SCC(=O)Nc2nccs2)cc1	1.0	5	-1.6%	.	-0.8	6%	?
COCc1cccc(-c2csc(C(C)(O)c3ccccc3)n2)c1 (stereo not drawn)	.	.	1.4%	.	-0.9	.	7.2%
Cc1cc(OCCn2cnc3ccccc3c2=O)ccc1[N+](=O)[O-]	4.9	0	-2.9%	-2	-0.2	21%	9.2%
CC1OC(OC2C(Oc3c(-c4ccc(O)cc4)oc4cc(O)cc(O)c4c3=O)OC(COC3O[C@@H](C)[C@H](O)[C@@H](O)C3O)C(O)C2O)C(O)C(O)C1O (stereo partly drawn)	.	8	-1.6%	-2	-0.1	.	0.7%
CC(=O)c1ccc(N2CCN(C(=O)c3ccc(C(=O)c4ccccc4)cc3)CC2)cc1	.	-5	-2.5%	-9	1.2	.	0.0%
CCOC(=O)C1CCN(c2ccc([N+](=O)[O-])cc2)CC1	0.0	5	.	-1	0.9	19%	3.0%
CCOC(=O)c1ccc(N2C(=O)C(O)=C(C(C)=O)C2c2ccccc2)cc1 (stereo not drawn)	0.9	11	-9.6%	-2	0.5	14%	-0.5%
Fc1ccc(CNc2nc(-c3ccco3)cc(C(F)(F)F)n2)cc1	3.6	9	25µM*	-4	-0.4	4%	19%
COCCn1cnc2cc(C)c(C)cc21	0.5	2	-1.3%	-1	-1.0	15%	1.5%
Cc1ccc(-c2nnc(NCc3nc4ccccc4[nH]3)c3ccccc23)cc1S(=O)(=O)N1CCOCC1	2.0	21	-4.2%	2	0.7	10%	6.0%
Cc1ccccc1CSc1cn(CC(=O)N2CCCC2)c2ccccc12	.	-7	0.4%	.	1.6	.	1.6%
COC(=O)c1cc(OC)c(OC)cc1NC(=S)N1CCOCC1	7.3	-22	-3.1%	9	0.7	4%	1.0%
O=C(N[C@@H](Cc1ccccc1)C(=O)O)c1c(F)c(F)c(F)c(F)c1F	1.6	10	0.5%	-6	-0.1	8%	2.9%
COc1ccc(CN(C(=O)c2cc3ccccc3oc2=O)C2CCS(=O)(=O)C2)cc1OC (stereo not drawn)	.	-3&7	-3.4%	2	-0.5&-0.1	-1%	3.0%&-1.0%
O=[N+]([O-])c1ccccc1N/N=C/c1cc2ccccc2nc1Cl	3.9	29	1.6%	-7	0.5	8%	32%[38.3 µM]
COc1cccc(N2CCN(Cc3nc4ccccc4c(=O)[nH]3)CC2)c1	5.8	-16	-0.9%	-3	1.7	2%	-2.4%
COc1ccc(CCNC(=O)c2ccc3c(c2)S(=O)(=O)N=C2CCCCCN23)cc1OC	.	1	-0.1%	.	-0.4	.	5.0%
CCc1nnc2c(N3CCN(c4cccc(C)c4)C(C)C3)nc3ccccc3n12 (stereo not drawn)	.	-3	-26%	.	2.7	.	1.5%
Cc1cc2ccccc2n1CCNC(=O)c1cccc(Br)c1	.	18	-1.2%	.	-0.6	.	0.1%
Cc1ccc2occ(/C=N/NC(=O)c3ccccc3O)c(=O)c2c1	9.0	-5	3.9%	3	-0.3	10%	2.4%
C[C@H](CO)N1C[C@H](C)[C@@H](CN(C)S(=O)(=O)c2cn(C)cn2)Oc2c(NS(=O)(=O)c3ccccc3)cccc2C1=O	.	12	-1.3%	.	-0.5	.	-0.1%
CC(=O)c1ccc2noc(-c3ccccc3)c2c1	0.4	-18	.	-6	1.1	-12%	-1.3%
CCOC(=O)c1sc(=NC(=O)C2CC2)n(C)c1C	3.7	-21	.	25	-0.7	9%	0.2%
O=C(CN(C(=O)c1csnn1)c1cccc(F)c1)NCc1ccc2c(c1)OCO2	-0.4	-15	.	-2	1.2	-13%	-1.4%
COCCn1c(=S)[nH]c2cc(C(=O)NCCCN3CCOCC3)ccc2c1=O	?	1	-0.9%	-3	0.8	79µM*	3.7%[38.3 µM]
O=C1CCN(Cc2ccc([N+](=O)[O-])cc2)CCN1CCO	-2.4	3	-1.3%&-1.2%	-6	-0.1&0.1	11%	0.5%
C=CCN=C(CC)C1=C(O)CCCC1=O	?	6	-2.8%	-5	0.3	?	1.9%
C=CCNC(=O)c1ccc2c(c1)S(=O)(=O)c1ccccc1C2=O	.	-18	1.8%	.	-0.1	.	1.2%
NCCSc1c(-c2ccc(Cl)cc2)[nH]c2ccccc12	-1.1	-20	3.3%	-36	1.6	-23%	5.0%
COc1cccc(C(=O)CN2CCC(NC(=O)NC3CCCCC3)CC2)c1	-0.2	-6	4.7%	15	-0.3	13%	-2.4%[38.3 µM]
Cc1ccc(Nc2nc(N)c([N+](=O)[O-])c(NCc3ccco3)n2)cc1	4.1	-5	0.0%	5	2.4	-4%	2.3%

3 compounds already listed, ordered by the value under TRPML1 inh, highest first.
SMILES	TRPML1 inh
O=C1CCN(Cc2ccc([N+](=O)[O-])cc2)CCN1CCO	3
Cc1ccc2occ(/C=N/NC(=O)c3ccccc3O)c(=O)c2c1	-5
CCOC(=O)c1sc(=NC(=O)C2CC2)n(C)c1C	-21

High-throughput results deposited in PubChem BioAssay by National Center for Advancing Translational Sciences (NCATS).

The order is random; any-hit rate near 4.4%.
